Screening results (PubChem)
miR-21 reporter: raises the signal of a miR-21 reporter | HeLa miR-21 FLuc reporter, luciferase, 48 h | Potency, µM (titrated, usually from 38.3 µM), for the others: top-dose reporter change, positive = more light | 340,000 tested, under 10 active | AID 2288; active = well fitted rising curve with a large enough effect; inconclusive = small, poorly fitted or top-dose-only effect; inactive = no such curve, though single readings can be large or run the other way;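 further: % of control where 0% means no effect; miR-21 action dims this reporter so a rising signal means less miR-21 action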
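Luminescence from a firefly luciferase reporter carrying a miR-21 binding site downstream, stably expressed under a CMV promoter in HeLa cells that make miR-21 endogenously, reports miRNA modulation after 48 h compound exposure up to approximately 40uM final.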
Rango release inh: inhibition of RanGTP-driven Rango-importin beta dissociation; O95149+P62826; Biochemical FRET Rango-importin beta, RanGTP-induced dissociation; Potency, µM (titrated, usually from 46.1 µM), for the others: top-dose activity change, negative = inhibition; actives 0.071% (n = 340,000); AID 540253; active means falling FRET ratio curve, often poorly fitted, with flat reads before Ran was added; inconclusive means other falling curves, or compound fluorescence or quenching; inactive means flat or rising ratio curve;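 further: potency means the concentration at half of the fitted maximal effect; % of control where 0% means no effect; nearly all actives have a fitted effect of over 45% in size; -100% = wells without RanGTP and RCC1; the record marks most hits as doubtful in a second field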
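Quantitative HTS using a FRET biosensor: 0.1 uM Rango, 0.25 uM importin beta, 0.6 uM Ran, 2 mM GTP, 0.2 uM RCC1 final, PBS with DTT, Tween-20 and BSA. Post-read taken 45 min after Ran addition.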
GLA inh pH 4.5: alpha-galactosidase A (human) inhibition, pH 4.5; purified enzyme, 4-MU-alpha-Gal fluorescence, pH 4.5; 230,000 tested, under 10 active; AID 1467; P06280; activity change, negative = inhibition, % at 105 µM; inconclusive = small, poorly fitted or top-dose-only inhibition, or a rising curve; inactive = flat fitted curve, though single readings scatter; no compound was filed as active;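 further: 0% = full activity with enzyme and -100% = basal without enzyme; dose as in the result columns while the protocol names 77 µM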
Rango complex inh: inhibitors of Rango-importin beta complex formation. Rango CFP/YFP FRET sensor + importin beta, 45 min. Potency, µM (doses to about 92.2 µM), for the others: at the highest dose inhibition of complex formation. actives 0.031% (n = 340,000); active = rising FRET ratio curve, often small or poorly fitted; inconclusive = mostly compound fluorescence or quenching in the first reads; inactive = flat curves in all reads;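 further: potency means the concentration at half of the fitted maximal effect; 0% = DMSO wells and 100% = buffer wells lacking importin beta; nearly all actives have a fitted effect of over 15% in size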
Target sequence (Q14974 whole entry, looked up): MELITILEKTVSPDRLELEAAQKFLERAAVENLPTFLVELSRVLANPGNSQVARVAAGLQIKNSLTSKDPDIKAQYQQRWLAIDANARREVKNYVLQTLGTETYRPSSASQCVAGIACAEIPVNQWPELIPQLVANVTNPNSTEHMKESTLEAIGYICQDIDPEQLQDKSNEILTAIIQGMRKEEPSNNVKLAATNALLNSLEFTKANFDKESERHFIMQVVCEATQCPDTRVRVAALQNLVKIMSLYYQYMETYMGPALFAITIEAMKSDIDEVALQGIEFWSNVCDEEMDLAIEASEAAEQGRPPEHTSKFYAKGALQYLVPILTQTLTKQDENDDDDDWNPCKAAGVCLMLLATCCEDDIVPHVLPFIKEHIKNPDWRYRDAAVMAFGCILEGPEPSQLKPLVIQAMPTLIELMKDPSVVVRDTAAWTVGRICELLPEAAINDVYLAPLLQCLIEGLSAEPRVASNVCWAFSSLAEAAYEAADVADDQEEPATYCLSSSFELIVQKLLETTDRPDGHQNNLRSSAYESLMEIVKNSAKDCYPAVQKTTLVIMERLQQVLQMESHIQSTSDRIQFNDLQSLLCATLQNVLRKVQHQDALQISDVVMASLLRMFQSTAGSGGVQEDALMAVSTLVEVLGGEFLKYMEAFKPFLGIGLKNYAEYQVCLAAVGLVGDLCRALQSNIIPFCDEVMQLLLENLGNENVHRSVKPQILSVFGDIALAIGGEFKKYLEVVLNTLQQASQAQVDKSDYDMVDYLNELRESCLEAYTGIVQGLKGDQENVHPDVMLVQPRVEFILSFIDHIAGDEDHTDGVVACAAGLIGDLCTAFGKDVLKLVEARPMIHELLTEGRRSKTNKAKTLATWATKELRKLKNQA
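Inhibition scored from the CFP 486 nm/YFP 530 nm FRET ratio 45 min after adding 0.125 microM importin beta to 50 nM Rango biosensor preincubated 5 min with compound (room temperature, PBS with DTT, Tween-20, BSA). No-importin wells as positive control.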
* marks the source's active call; other numbers are inactive results; u = inconclusive; x = no result given; & = joins results of further samples; [ ] = dose if it differs, or a comment.

SMILES	miR-21 reporter	Rango release inh	GLA inh pH 4.5	Rango complex inh
COc1cccc(CNC(=O)Cn2nc(C)c([N+](=O)[O-])c2C)c1	5%	2%	x	-3.4%
CCCCN(C(=O)c1ccc(NC2CC2)c([N+](=O)[O-])c1)c1c(N)n(CCCC)c(=O)[nH]c1=O	x	0%	x	0.0%
CC(C)(C)Nc1nc(SCC(=O)Nc2ccccc2Cl)nc(N2CCOCC2)n1	-7%	14%	x	0.0%
C/C(=N/NC(=O)Cc1cc(=O)[nH][nH]1)c1ccc([N+](=O)[O-])cc1	2%	3%	3	-1.1%
Cc1onc(-c2ccccc2Cl)c1C(=O)N1CCN(C=O)CC1	1%	-9%	x	-2.4%
CCn1c2ccccc2c2cc(/C=N/n3cnnc3)ccc21	-15%	11%	8	1.3%
CCCC(=O)NCCCc1nc2ccccc2[nH]1	-2%	17%	7	-3.5%
CCOC(=O)CSc1nnc(CNC(=O)c2ccc(OC)cc2)n1Cc1ccccc1	-2%	15%	1	0.0%
Cc1ccc2nc(C)cc(SCC(=O)N/N=C/c3ccco3)c2c1	0%	8%	x	-2.7%
CC1(C)Cc2c(sc3nc[nH]c(=O)c23)CO1	8%	0%	4	0.2%
CCCN(CC(=O)Nc1ccccc1OC)C(C)C(=O)NC(C)CCc1ccccc1 (stereo unspecified)	-1%	-7%	x	2.9%
CCOc1cc(C2NC(=O)NC(C)=C2C(=O)OCc2ccccc2)ccc1O (stereo unspecified)	-31%	-9%	3	-1.8%
O=C(COC(=O)Cn1cnc2ccccc2c1=O)NNC(=O)c1ccc(Br)cc1	x	-13%	x	1.0%
NC(=O)C1CC(=O)N(c2ccc(OCc3ccc(F)cc3)cc2)C1 (stereo unspecified)	-60%	34%	x	2.4%
Cc1ccc(NC(=O)CN(C)C(=O)c2cn(Cc3ccccc3)nc2-c2cccnc2)cc1	x	19%	x	-0.2%
Cc1cc(=O)[nH]c(/N=C(\N)Nc2ccc(Oc3ccccc3)cc2)n1	-4%	2%	7	2.2%
C=CCS(=O)(=O)c1nc2ccccc2s1	u	5%	-9	-1.3%
CCCCCOc1ccc(C(=O)CCC(=O)NNC(=O)c2ccncc2)cc1	x	3%	x	1.1%
COc1ccc(CCN(C)C2CCCN(S(=O)(=O)C(C)C)C2)cc1OC (stereo unspecified)	-1%	-9%	x	1.1%
N#Cc1cc2ccc(N3CCOCC3)cc2cc1C#N	-5%	u	0	u
Nc1ncn(CC(=O)c2ccccc2)n1	0%	1%	6	-2.9%
COc1ccc(CN(C)C(=O)Cc2ccsc2)c(OC)c1OC	-5%	6%	x	6.2%
CSc1ncccc1C(=O)Nc1cc(Cl)ccc1N1CCOCC1	x	-5%	x	-1.7%
CC(C)Sc1nnc(NC(=O)C2CC2)s1	-31%	7%	-1	-0.5%
CCCc1c(C)nc(N2CCN(c3cccc(OC)c3)CC2)[nH]c1=O	9%	21%	x	-0.6%

The last five entries of the section before lead into the next.
SMILES	miR-21 reporter	Rango release inh	GLA inh pH 4.5	Rango complex inh
Nc1ncn(CC(=O)c2ccccc2)n1	0%	1%	6	-2.9%
COc1ccc(CN(C)C(=O)Cc2ccsc2)c(OC)c1OC	-5%	6%	x	6.2%
CSc1ncccc1C(=O)Nc1cc(Cl)ccc1N1CCOCC1	x	-5%	x	-1.7%
CC(C)Sc1nnc(NC(=O)C2CC2)s1	-31%	7%	-1	-0.5%
CCCc1c(C)nc(N2CCN(c3cccc(OC)c3)CC2)[nH]c1=O	9%	21%	x	-0.6%
Cc1ccc(CSc2nnc(C(F)(F)F)n2Cc2ccc(F)cc2)cc1	-19%	1%	1	-3.0%
Cc1c(CN(C)C)c2c(n1C)C(=O)c1ccc(Br)cc1-2	-49%	-1%	-2	-1.4%
O=C(NCCC1CCCCN1S(=O)(=O)c1ccccc1)C(=O)NCC1CCCO1 (stereo unspecified)	x	-22%	x	0.1%
Cc1ccc(S(=O)(=O)N2CCCCC2)cc1C(=O)OCC(=O)N1c2ccccc2NC(=O)C1(C)C	x	-14%	x	-0.5%
COc1ccc(-c2ccc(N(C)C)cc2)cc1[C@H]1[C@H]2C=CC[C@@H](C)[C@@H]2C(=O)N1Cc1ccccc1	-1%	-9%	1	-2.3%
COc1ccccc1C1CC(=O)NC(C)=C1C(=O)OCC(C)C (stereo unspecified)	-2%	0%	1	-3.3%
CCOc1ccc(C2NC(=O)c3ccccc3O2)cc1OCC (stereo unspecified)	0%	5%	x	0.4%
O=C(CCn1[nH]c(=O)c2ccccc2c1=O)NCCO	0%	1%	11	-0.3%
CC(C)CN=Cc1c(O)c([N+](=O)[O-])cc2oc3c(c12)CCCC3	-3%	-1%	-3	-0.5%
CC1=C(C(=O)OCC(C)C)C(c2ccc(Br)s2)NC(=O)N1 (stereo unspecified)	4%	-6%	0	-1.4%
CCOC(=O)Cc1csc(NC(=O)CSc2nnc(Cc3csc(N)n3)n2C)n1	-4%	-12%	-10	-5.3%
Cc1ccc(NS(=O)(=O)c2ccc(C)c(C(=O)NCC(c3ccccc3)N(C)C)c2)cc1 (stereo unspecified)	x	6%	x	1.1%
CC1(C)CC(=O)C(N=Nc2ccc(OC(F)F)cc2)=C(O)C1	-46%	-8%	-4	-1.3%
Oc1ccccc1C=NN1CCCCCC1	x	-6%	x	1.1%
O=C(Cn1cnc2ccccc2c1=O)NC1CCS(=O)(=O)C1 (stereo unspecified)	x	-6%	x	u
C=CCn1c(=O)c2c(nc(-c3ccc(S(=O)(=O)O)cc3)n2C)n(C)c1=O	x	5%	9	-2.9%
COc1ccc(C(=O)Nc2ccc3c(c2)OCCO3)cc1	2%	-18%	-12	-0.6%
O=C(NCCOc1nc(N2CCOCC2)nc(N2CCOCC2)n1)Nc1ccc(Cl)cc1	-5%	6%	-3	-0.5%
N=C1CCCN1c1ccccc1O	7%	-10%	-10	1.1%
Cn1c(N)c(C(=O)COC(=O)CNS(=O)(=O)c2ccc(Cl)c(Cl)c2)c(=O)n(C)c1=O	-5%	11%	1	0.3%
Cc1cc(C)nc(SCC(=O)c2ccc([N+](=O)[O-])cc2)n1	-7%	10%	2	2.6%
CCC(NC(=O)CCc1c(C)c2cc3c(C)c(C)oc3cc2oc1=O)C(=O)N[C@@H](Cc1ccccc1)C(=O)O (stereo partly specified)	2%	-6%	x	u
COc1ccc(-c2cn[nH]c2-c2ccc(OCc3ccc([N+](=O)[O-])cc3)cc2O)cc1OC	28%	15%	0	-1.6%
O=C(c1cccc(S(=O)(=O)N2CCOCC2)c1)N1CCN(c2ccccc2)CC1	x	-10%	x	1.2%
CCc1c(C)c2nncn2[nH]c1=O	0%	1%	0	-3.7%

(further entries)
SMILES	miR-21 reporter	Rango release inh	GLA inh pH 4.5	Rango complex inh
O=C(CSc1nc(=O)[nH]c2c1CCCC2)Nc1ccc(F)cc1F	x	-8%	x	-2.3%
CCOc1ccc(NC(=S)N2CCC(N(C)CCN3CCOCC3)CC2)cc1	-4%	0%	2	4.0%
Cc1cccc(N2CCN(C(=O)CNC(=O)Cc3ccccc3)CC2)c1C	x	-8%	x	-1.9%
Cn1c2cc(Br)sc2c2cnn(Cc3ccc(F)cc3F)c(=O)c21	x	u	x	3.4%
Cc1ccc(C2NC(=O)CCC2[N+](=O)[O-])cc1 (stereo unspecified)	0%	0%	4[21.1 µM]	1.1%
NC(=O)C1(N2CCCCC2)CCN(C(=O)Nc2ccccc2C(F)(F)F)CC1	-2%	-3%	0	u
COc1ccccc1NS(=O)(=O)c1ccc(C(=O)N2CCCC(C(F)(F)F)C2)cc1 (stereo unspecified)	x	-9%	x	2.9%
CCOC(=O)C1CCCN(CC(=O)NC2=Nc3ccccc3N=C(C)C2c2ccccc2)C1 (stereo unspecified)	6%	-10%	-8	-1.1%
O=C(CSc1nc2[nH]c(=O)cc(O)c2s1)Nc1nccs1	x	-1%	x	1.2%
COc1ccccc1NS(=O)(=O)c1cc(NC(=O)c2cccs2)ccc1N1CCCCC1	14%	13%	-2	2.0%
Cc1cc(Br)c2c(c1)C(O)(N1CCCCC1C)C(=O)N2 (stereo unspecified)	-10%	9%	-2	-2.7%
Cc1cc2cc(C#N)c(N3CCN(S(C)(=O)=O)CC3)nc2cc1C	-17%	u	2	u
CC1CCN(C(=O)c2[nH]cnc2C(=O)Nc2cccc(Cl)c2)CC1	x	0%	x	0.1%
CCn1c(SCC(=O)N2CCN(c3ccccc3)CC2)nnc1-c1ccoc1C	7%	-17%	-10	0.5%
CCC(=O)N1CCc2cc(S(=O)(=O)CCC(=O)NCCc3ccccc3)ccc21	3%	-4%	-1	-4.5%
Cc1ccc(S(=O)(=O)NCC(=O)N(CC(=O)NCC2CCCO2)Cc2ccccc2Cl)cc1 (stereo unspecified)	-2%	-10%	x	0.0%
CCN1CCN(C(=S)Nc2cc(C(=O)OC)ccc2C(=O)OC)CC1	0%	1%	8	-2.1%
CCC(=O)NC(=S)NNC(=O)COc1ccc(Br)cc1	-3%	12%	7	2.7%
COc1ccc(-c2nnc(SCc3cc(C)cc(C)c3)o2)cc1	0%	6%	-2	2.7%
CCOC(=O)C1=C(C)NC(SC)=NC1c1ccccc1 (stereo unspecified)	-4%	-3%	-4	-0.2%
O=C(CN1CCN(c2ccc(Cl)cc2)CC1)Nc1cccc(F)c1	-1%	14%	-2	5.2%
O=C(O)c1cccc(Nc2nc(C(F)(F)F)nc3ccccc23)c1	-5%	4%	-11	3.5%
O=C(CN1CCN(S(=O)(=O)c2ccc(Br)cc2)CC1)N/N=C/c1ccccc1C(=O)O	1%	-2%	x	4.2%
O=C(COC(=O)c1ccc2c(c1)OCCO2)NCCC1=CCCCC1	-26%	20%	-1	0.4%
CCCOc1ccc2ccccc2c1/C=C1\SC(=O)NC1=O	1%	-4%	x	-0.4%

Continuation:
SMILES	miR-21 reporter	Rango release inh	GLA inh pH 4.5	Rango complex inh
Cc1nn(-c2ccccc2)c(C)c1/C=N/n1cnnc1	-20%	7%	-2	-1.3%
O=C(OCC(=O)N1CCCCC1)c1ccc2ccccc2n1	x	29%	x	-3.7%
COc1ccc(S(=O)(=O)NNC(=O)C2Cc3c(ccc4ccccc34)O2)cc1 (stereo unspecified)	16%	-16%	-2	-0.3%
CCC1CCCCN1CCCNC(=O)CSc1nc2nc(C)c(Cc3ccccc3Cl)c(C)n2n1 (stereo unspecified)	-1%	-9%	x	-3.5%
C=C(C)Cn1c(=O)c(NC(=O)c2ccccc2)c2n(c1=S)CCC2	-2%	2%	4	-2.0%
O=C(CNC(=O)C12CC3CC(CC(C3)C1)C2)Nc1ncccc1O	x	-2%	x	-1.2%
COc1ccccc1/C=C/C(=O)NCC(=O)N/N=C(\CCC(=O)O)c1ccccc1	0%	2%	-4	0.2%
Cc1cc(OCC(=O)Nc2ccc(CN3CCCCC3)cc2)ccc1Cl	1%	4%	-5	-1.4%
CCC(=O)Nc1cccc2ccccc12	-4%	4%	2	1.9%
COc1ccc(CNC(=O)CCn2c(=O)oc3ccccc32)c(OC)c1	1%	-1%	7	1.9%
CC1=CCC(C(=O)O)C(C(=O)O)C1 (stereo unspecified)	-1%	-11%	-5	1.5%
CCN(C(=O)CCS(=O)(=O)c1ccc2c(c1)oc(=O)n2C)c1ccc(OC)cc1	3%&0%	5%	x	1.5%
O=C(COc1ccc2ccc(=O)oc2c1)NCc1ccccn1	4%	9%	x	-0.1%
COc1ccc(N2CCN(C(=O)Cn3c(=O)c4cccn4c4cccnc43)CC2)cc1	1%	-15%	x	u
COc1cc(/C=N/Nc2ccccc2[N+](=O)[O-])cc(OC)c1O	-35%	0%	5	1.1%
Cc1c(O)c(S(=O)(=O)c2ccccc2)c(=O)n(-c2ccccc2)c1-c1ccccc1	-32%	-9%	-8	-1.8%
CCCC(=O)N1CCc2cc(OC)c(OC)cc2C1COc1ccccc1OC (stereo unspecified)	-7%&4%	-5%	x	-2.9%
CC(=O)c1sc(-c2ccccc2)cc1N	-24%	-6%	-3	-0.3%

Entries listed so far that contain a cyano group (2):
SMILES	miR-21 reporter	Rango release inh	GLA inh pH 4.5	Rango complex inh
N#Cc1cc2ccc(N3CCOCC3)cc2cc1C#N	-5%	u	0	u
Cc1cc2cc(C#N)c(N3CCN(S(C)(=O)=O)CC3)nc2cc1C	-17%	u	2	u

A portion of the library. The share of hits here may be higher or lower than overall.
